UUG fidelity = modulators of yeast start codon fidelity, primary screen, whole organism, S. cerevisiae, single point, plate reader. actives 0.13% (n = 350,000). S. cerevisiae UUG-firefly luciferase reporter, luminescence/redox ratio. activity score, % at 18.7 µM. AID 602363, 2012;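 active = replicate mean at a twofold rise or more, about +100% in these data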;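 note: firefly luciferase made from a UUG start codon reports start codon fidelity; reporter light over untreated wells divided by growth signal over untreated wells; some hits fall short of that in this replicate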
HIV Env fusion = inhibitors of HIV-1 Env-driven cell-cell fusion, primary screen, HeLa-JRFL effector, CEM21 target cells, luciferase; inhibition, % at 12.3 µM; actives 1.1% (n = 360,000); AID 651610, 2012;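 active = mean replicate inhibition score of at least 50 and every replicate individually at or above 50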;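 note: 0% = plate neutral controls and 100% = maraviroc near 300 nM; one replicate is shown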
Numbers without * were called inactive; & = joins results of further samples; [ ] = another dose, or the depositor's remark. The list is partial. The share of hits here may be higher or lower than overall.

SMILES	UUG fidelity	HIV Env fusion
C[C@@H]1CN([C@H](C)CO)C(=O)Cc2cc(NS(=O)(=O)c3ccccc3)ccc2O[C@H]1CN(C)S(=O)(=O)c1ccc(Cl)cc1	10.1	-2.0[16.7 µM]
COCC(=O)N(C)C[C@H]1Oc2ncc(C#Cc3ccc(OC)cc3)cc2C(=O)N([C@H](C)CO)C[C@H]1C	15.0	0.9[16.7 µM]
C[C@@H]1CCCCO[C@H](CN(C)C(=O)Nc2ccc(F)cc2)[C@H](C)CN([C@H](C)CO)C(=O)c2cc(NC(=O)Cc3ccccc3)ccc2O1	-12.4	-42.4[16.7 µM]
Cc1ccc(S(=O)(=O)N(C)C[C@H]2OCCCC[C@@H](C)Oc3ccc(NC(=O)NC(C)C)cc3C(=O)N([C@H](C)CO)C[C@@H]2C)cc1	-2.9	-9.2[16.7 µM]
C[C@@H]1CN([C@@H](C)CO)C(=O)c2cc(NS(=O)(=O)c3ccc(Cl)cc3)ccc2O[C@@H](C)CCCCO[C@@H]1CN(C)Cc1ccc(C(F)(F)F)cc1	-1.4	30.6[16.7 µM]
C[C@@H]1CCCCO[C@H](CN(C)S(=O)(=O)c2ccc(Cl)cc2)[C@@H](C)CN([C@H](C)CO)C(=O)c2cc(NC(=O)CCC(F)(F)F)ccc2O1	-5.0	-3.4[16.7 µM]
C[C@@H]1CN([C@H](C)CO)C(=O)c2cc(NS(=O)(=O)c3ccc(Cl)cc3)ccc2O[C@@H]1CN(C)C(=O)Nc1cccc2ccccc12	-4.2	5.6[16.7 µM]
Cc1noc(C)c1NC(=O)N(C)C[C@@H]1OCCCC[C@@H](C)Oc2ccc(NC(=O)NC3CCCCC3)cc2C(=O)N([C@H](C)CO)C[C@@H]1C	-0.2	-6.1[16.7 µM]
C[C@H](O)C#Cc1ccc2c(c1)O[C@@H](CN(C)C(=O)Nc1ccccc1)[C@H](C)CN([C@@H](C)CO)S2(=O)=O	21.1	-26.0[16.7 µM]
Cc1ccccc1-c1cnc2c(c1)C(=O)N([C@@H](C)CO)C[C@H](C)[C@@H](CN(C)C(=O)c1cccnc1)O2	-3.7	-1.6[16.7 µM]
COc1ccc(S(=O)(=O)Nc2ccc3c(c2)C(=O)N([C@H](C)CO)C[C@@H](C)[C@H](CN(C)Cc2ccc4c(c2)OCO4)OCCCC[C@@H](C)O3)cc1	17.4	-134.1[16.7 µM]
C[C@H]1CN([C@@H](C)CO)C(=O)c2cc(NC(=O)C3CCCCC3)ccc2O[C@@H]1CN(C)S(=O)(=O)c1ccccc1	8.6	9.8[16.7 µM]
C[C@H](CO)N1C[C@H](C)[C@H](CN(C)C(=O)Nc2ccc3c(c2)OCO3)Oc2ccc(N(C)C)cc2C1=O	4.2	5.0[16.7 µM]
C[C@@H]1CN([C@H](C)CO)C(=O)Cc2cc(NC(=O)Nc3ccccc3)ccc2O[C@H]1CN(C)S(=O)(=O)c1ccc(F)cc1	10.5	-7.5[16.7 µM]
C[C@H]1CCCCO[C@@H](CN(C)C(=O)Nc2ccc(C(F)(F)F)cc2)[C@@H](C)CN([C@@H](C)CO)C(=O)c2cc(NC(=O)Nc3ccc4c(c3)OCO4)ccc2O1	-16.5	35.4[16.7 µM]
CCCNC(=O)Nc1ccc2c(c1)OC[C@@H](C)N(CC1CCCC1)C[C@H](C)[C@@H](OC)CN(C)C2=O	6.6	7.0[16.7 µM]
C[C@@H]1CN([C@@H](C)CO)C(=O)c2cc(C#CC3CCCCC3)cnc2O[C@H]1CN(C)C	-5.1	29.2[16.7 µM]
Cc1ccc(S(=O)(=O)N(C)C[C@H]2Oc3ccc(NS(=O)(=O)c4c(C)noc4C)cc3C(=O)N([C@H](C)CO)C[C@@H]2C)cc1	2.9	-15.7[16.7 µM]
CCCC#Cc1ccc2c(c1)O[C@H](CN(C)C)[C@@H](C)CN([C@@H](C)CO)S2(=O)=O	-2.5	14.1[16.7 µM]
C[C@@H]1CN([C@H](C)CO)C(=O)Cc2cc(NC(=O)Nc3ccc4c(c3)OCO4)ccc2O[C@H]1CN(C)S(=O)(=O)c1ccc(Cl)cc1	-6.9	-0.2[16.7 µM]
CC(=O)N[C@H]1[C@H](O/N=[N+](\[O-])N2CCCC2)OC(CO)[C@@H](O)[C@@H]1O (stereo partly specified)	1.5	1.2[16.7 µM]
C[C@H](CO)N1C[C@H](C)[C@H](CN(C)Cc2ccncc2)Oc2ccc(NS(=O)(=O)c3cccs3)cc2CC1=O	-6.4	-35.5[16.7 µM]
COCC(=O)N(C)C[C@@H]1Oc2ncc(-c3ccccc3C)cc2C(=O)N([C@@H](C)CO)C[C@@H]1C	7.5	2.0[16.7 µM]
CCCN(C)C[C@H]1Oc2cc(Br)ccc2S(=O)(=O)N([C@@H](C)CO)C[C@H]1C	-8.0	-5.7[16.7 µM]
C[C@@H]1CN([C@H](C)CO)C(=O)c2cc(Br)cnc2O[C@H]1CN(C)C(=O)c1ccc(F)cc1	2.6&-3.8	-4.8
Continuation.
SMILES	UUG fidelity	HIV Env fusion
C[C@@H]1CN([C@@H](C)CO)S(=O)(=O)c2ccc(-c3ccc(F)cc3)cc2O[C@H]1CN(C)C(=O)Nc1ccccc1F	-1.3	-8.7[16.7 µM]
COc1ccc(NC(=O)N(C)C[C@@H]2Oc3ccc(NC(=O)CCCCCC(=O)Nc4ccccc4N)cc3CC(=O)N([C@@H](C)CO)C[C@H]2C)cc1	9.3	-9.0[16.7 µM]
C[C@H]1CN([C@@H](C)CO)C(=O)Cc2cc(NC(=O)CCCN(C)C)ccc2O[C@@H]1CN(C)S(=O)(=O)c1cn(C)cn1	-20.5	-10.6[16.7 µM]
C[C@H](CO)N1C[C@H](C)[C@H](CN(C)Cc2cccnc2)Oc2ncc(/C=C/c3ccccc3)cc2C1=O	-11.6	15.5[16.7 µM]
CO[C@H]1CN(C)C(=O)c2cc(NC(C)=O)ccc2OC[C@@H](C)N(C(=O)CN2CCOCC2)C[C@H]1C	-13.7	-1.2[16.7 µM]
C[C@@H]1CCCCO[C@H](CN(C)C(=O)Nc2ccccc2)[C@@H](C)CN([C@H](C)CO)C(=O)c2cc(NC(=O)CCC(F)(F)F)ccc2O1	-5.7	-29.4[16.7 µM]
Cc1noc(C)c1NC(=O)Nc1ccc2c(c1)C(=O)N([C@@H](C)CO)C[C@H](C)[C@H](CN(C)Cc1ccc(C(=O)O)cc1)OCCCC[C@@H](C)O2	7.7	-8.5[16.7 µM]
Cc1cc(C(=O)Nc2cccc3c2O[C@@H](CN(C)CC2CCCCC2)[C@H](C)CN([C@@H](C)CO)C3=O)n(C)n1	0.7	10.5[16.7 µM]
CCNC(=O)C[C@H]1C=C[C@@H](NS(=O)(=O)c2ccc(F)cc2)[C@@H](CO)O1	-1.1	3.5[16.7 µM]
C[C@H](O)C#Cc1ccc2c(c1)O[C@H](CN(C)CC1CCOCC1)[C@H](C)CN([C@@H](C)CO)S2(=O)=O	-6.5	-15.0[16.7 µM]
C[C@H](CO)N1C[C@H](C)[C@H](CN(C)C)Oc2cc(C#Cc3ccccc3)ccc2S1(=O)=O	3.4	31.0[16.7 µM]
CO[C@@H]1CN(C)C(=O)c2cc(NC(=O)NC(C)C)ccc2OC[C@@H](C)N(C(=O)CC2CC2)C[C@H]1C	3.4	-2.1[16.7 µM]
CC(C)NC(=O)Nc1ccc2c(c1)C(=O)N([C@H](C)CO)C[C@H](C)[C@@H](CN(C)Cc1ccc(Cl)c(Cl)c1)OCCCC[C@@H](C)O2	3.1	10.4[16.7 µM]
Cc1ccc(S(=O)(=O)N[C@@H]2CC[C@H](CCNS(=O)(=O)Cc3ccccc3)O[C@@H]2CO)cc1	1.5	1.0[16.7 µM]
C[C@@H]1CN([C@H](C)CO)C(=O)c2cc(C#CC3(O)CCCC3)cnc2O[C@@H]1CN(C)S(=O)(=O)c1ccccc1	-6.5	4.9[16.7 µM]
O=C(C[C@@H]1CC[C@@H]2[C@H](COC[C@H](O)CN2Cc2cc(F)cc(F)c2)O1)NC1CCCC1	-8.2	7.0[16.7 µM]
C[C@H]1CN([C@@H](C)CO)C(=O)c2cccc(NC(=O)c3ccc(-c4nccs4)cc3)c2O[C@H]1CN(C)S(=O)(=O)c1ccccc1	21.0	-0.5[16.7 µM]
C[C@H]1CN([C@@H](C)CO)C(=O)c2cc(-c3cccc(C#N)c3)cnc2O[C@H]1CN(C)Cc1cncnc1	12.1	-6.2[16.7 µM]
C[C@@H]1CCCCO[C@H](CN(C)Cc2ccc(C(=O)O)cc2)[C@@H](C)CN([C@H](C)CO)C(=O)c2cc(NC(=O)c3ccncc3)ccc2O1	-30.5	-5.1[16.7 µM]
Cc1noc(C)c1S(=O)(=O)Nc1ccc2c(c1)CC(=O)N([C@H](C)CO)C[C@H](C)[C@@H](CN(C)Cc1ccccc1)O2	-8.5	17.7[16.7 µM]
COCC(=O)N(C)C[C@H]1Oc2ncc(-c3ccc(F)cc3)cc2C(=O)N([C@H](C)CO)C[C@@H]1C	-0.8	7.0[16.7 µM]
C[C@H](CO)N1C[C@H](C)[C@@H](CN(C)C)Oc2cc(C#Cc3cccc(F)c3)ccc2S1(=O)=O	16.7	16.7[16.7 µM]
O=C(C[C@@H]1C[C@H]2c3cc(NC(=O)NC4CCCC4)ccc3O[C@H]2[C@@H](CO)O1)NCCc1ccccc1	-32.5	-4.0[16.7 µM]
C[C@H]1CN([C@@H](C)CO)C(=O)c2cccc(NC(=O)NC3CCCCC3)c2O[C@@H]1CN(C)CC1CC1	-24.0	-3.5[16.7 µM]
C[C@@H]1CN([C@H](C)CO)C(=O)c2cc(NC(=O)c3ccncc3)ccc2O[C@H]1CN(C)S(C)(=O)=O	-7.6	0.4[16.7 µM]
(more compounds)
SMILES	UUG fidelity	HIV Env fusion
COc1ccc(CN(C)C[C@@H]2OCCCC[C@@H](C)Oc3ccc(NC(=O)NC(C)C)cc3C(=O)N([C@@H](C)CO)C[C@H]2C)cc1	2.0	3.2[16.7 µM]
C[C@@H]1CN([C@H](C)CO)C(=O)c2cc(NS(=O)(=O)c3ccccc3)ccc2O[C@@H]1CN(C)S(=O)(=O)c1cccs1	-1.0	-5.5[16.7 µM]
C[C@@H]1CN([C@H](C)CO)C(=O)c2cc(NC(=O)CCCN(C)C)ccc2O[C@@H]1CN(C)S(=O)(=O)c1cn(C)cn1	-4.9	-1.0[16.7 µM]
Cc1ccc(S(=O)(=O)NCC[C@H]2CC[C@H](NS(=O)(=O)c3ccccc3Cl)[C@H](CO)O2)cc1	8.9	-0.2[16.7 µM]
C[C@H](CO)N1C[C@H](C)[C@H](CN(C)Cc2ccc(Cl)c(Cl)c2)Oc2ccc(NS(=O)(=O)c3ccccc3)cc2CC1=O	7.7	-11.4[16.7 µM]
COCC#Cc1cnc2c(c1)C(=O)N([C@@H](C)CO)C[C@@H](C)[C@H](CN(C)C(=O)c1cccc(F)c1)O2	5.3	-4.2[16.7 µM]
COC(=O)C[C@@H]1CC[C@H]2[C@H](COc3ccc(NC(=O)Nc4ccc(C)cc4)cc3C(=O)N2C)O1	1.4	-0.6[16.7 µM]
COc1ccc(NC(=O)Nc2cccc3c2O[C@@H](CN(C)S(=O)(=O)c2ccc(C)cc2)[C@@H](C)CN([C@@H](C)CO)C3=O)cc1	14.9	2.3[16.7 µM]
Cc1noc(C)c1NC(=O)N(C)C[C@H]1Oc2c(NS(=O)(=O)c3c(C)noc3C)cccc2C(=O)N([C@@H](C)CO)C[C@H]1C	-1.4	4.9[16.7 µM]
COCC#Cc1ccc2c(c1)O[C@H](CN(C)S(C)(=O)=O)[C@@H](C)CN([C@H](C)CO)S2(=O)=O	12.1	-0.1[16.7 µM]
C[C@H](CO)N1C[C@H](C)[C@@H](CN(C)C(=O)Nc2ccc3c(c2)OCO3)OCCCC[C@H](C)Oc2ccc(NC(=O)Nc3ccccc3)cc2C1=O	2.8	-26.8[16.7 µM]
Cc1noc(C)c1NC(=O)N(C)C[C@H]1Oc2ccc(NC(=O)C3CC3)cc2CC(=O)N([C@H](C)CO)C[C@@H]1C	-2.5	-8.5[16.7 µM]
C[C@@H]1CCCCO[C@@H](CN(C)C(=O)NC2CCCCC2)[C@H](C)CN([C@H](C)CO)C(=O)c2cc(NS(=O)(=O)c3cn(C)cn3)ccc2O1	-0.6	-2.1[16.7 µM]

Profiles from above. Order of values: UUG fidelity	HIV Env fusion
Cc1ccc(S(=O)(=O)NCC[C@H]2CC[C@H](NS(=O)(=O)c3ccccc3Cl)[C@H](CO)O2)cc1 is entered as 8.9	-0.2[16.7 µM]
COc1ccc(CN(C)C[C@@H]2OCCCC[C@@H](C)Oc3ccc(NC(=O)NC(C)C)cc3C(=O)N([C@@H](C)CO)C[C@H]2C)cc1 is entered as 2.0	3.2[16.7 µM]
Cc1noc(C)c1NC(=O)N(C)C[C@H]1Oc2c(NS(=O)(=O)c3c(C)noc3C)cccc2C(=O)N([C@@H](C)CO)C[C@H]1C is entered as -1.4	4.9[16.7 µM]
COc1ccc(NC(=O)Nc2cccc3c2O[C@@H](CN(C)S(=O)(=O)c2ccc(C)cc2)[C@@H](C)CN([C@@H](C)CO)C3=O)cc1 is entered as 14.9	2.3[16.7 µM]
C[C@@H]1CN([C@H](C)CO)C(=O)c2cc(NC(=O)CCCN(C)C)ccc2O[C@@H]1CN(C)S(=O)(=O)c1cn(C)cn1 is entered as -4.9	-1.0[16.7 µM]

From PubChem BioAssay
